# High-throughput results deposited in PubChem BioAssay by ICCB-Longwood Screening Facility, Harvard Medical School.
# HCMV NEC inh: inhibitors of HCMV UL50-UL53 interaction, biochemical, HTRF. normalized percent inhibition. inhibition, % (test concentration not listed). hit rate 0.15% among 190,000;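 active = both replicates at 50% or more, plus weaker picks with an unusually low signal ratio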;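 also: stock transfer was 100 nL into about 20 µL; 0% = negative control wells and 100% = wells with untagged competitor protein; inactives centre near -12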
# Sa growth inh: S. aureus growth inhibition at 42 and 30 °C, primary screen, LtaS inhibitor project, RN4220, two temperatures; OD600, 20 h, 42 °C; active compounds read low; relative growth, % (test concentration not listed); hit rate 0.53% among 170,000;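 active = growth at 42 °C up to 50% and 20 or more points under that at 30 °C, or under 10% at both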;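 also: 300 nL library stock went into each well; scaled to the means of positive and negative controls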
# GIV Gai3 FP: inhibitors of GIV peptide binding to Galpha-i3, primary screen, biochemical, fluorescence polarization, FITC-GIV GBA peptide, rat Galphai3. Guanine nucleotide-binding protein G(i) subunit alpha-3 (Rattus norvegicus), P08753. AID 1224905, 2016. 90 min; active compounds read low; scaled: aluminum fluoride 0%, vehicle 100%. percent of control (FP), % (concentration not given with the values). hit rate 0.42% among 210,000;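 active = replicate mean at 85% of control or lower, very high polarization wells dropped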;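 also: wells of about 15 µL received 100 nL stock; the first replicate is given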
# Target sequence (P08753 whole entry, looked up): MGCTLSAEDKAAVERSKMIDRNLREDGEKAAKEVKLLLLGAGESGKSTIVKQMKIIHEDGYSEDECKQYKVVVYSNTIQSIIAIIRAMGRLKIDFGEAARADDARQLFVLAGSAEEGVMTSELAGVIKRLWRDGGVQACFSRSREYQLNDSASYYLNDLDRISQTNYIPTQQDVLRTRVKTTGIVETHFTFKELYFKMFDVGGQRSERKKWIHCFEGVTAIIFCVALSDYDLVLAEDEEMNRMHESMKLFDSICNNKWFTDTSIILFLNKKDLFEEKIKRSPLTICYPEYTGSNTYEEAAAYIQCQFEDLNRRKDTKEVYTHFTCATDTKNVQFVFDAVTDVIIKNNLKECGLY
# Sa growth inh second temp: also measured in Sa growth inh; calls as there; relative growth, %; measured here: growth at 30 °C;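 optical density after 20 h as mean of two plates; 100% = untreated growth and lower means inhibition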
# * = called active by the depositor; . = no result given; & = joins results of further samples.
# Below each SMILES – HCMV NEC inh, Sa growth inh, Sa growth inh second temp, GIV Gai3 FP
CCOc1ncccc1C(=O)Nc1c(C)cc(C)cc1Cl
  -2, 92, 85, .
COc1ccc2c(c1)c1c(c(=O)n(-c3ccccc3)c(=O)n1CC(=O)Nc1ccc(C)c(C)c1)n2C
  ., 90, 91, 107
C=CCNC(=O)C(C)Sc1ccc(Cl)cc1 (stereo unspecified)
  8, 95, 103, 105
CCN(CC)C(=O)Cc1c(C(=O)O)[nH]c2ccc(Cl)cc12
  -9, 72, 83, 108
Cc1ccn2c(N)c(-c3ccccc3)nc2c1
  -72, 54, 32, .
CC(=O)Nc1c(O)[nH]c2ccc(C)cc12
  ., 78, 93, 107
COc1ccc(-c2c(C)nn3c(-c4ccccc4)cc(-c4ccccc4)nc23)cc1
  10, 88, 90, 107
O=C(O)c1ccc(CS(=O)c2ccccc2)o1 (stereo unspecified)
  9, 100, 94, 101
COc1ccc(Cn2c(CNC(=O)Cc3ccc(OC)c(OC)c3)nc3cccnc32)cc1
  ., 114, 93, 113
COc1ccc(CCNC(=O)C2CCCN(S(=O)(=O)c3cccc4nonc34)C2)cc1OC (stereo unspecified)
  ., 110, 83, 98
Cc1ccc(C)c(Nc2cc(N(C)C)c3nonc3c2[N+](=O)[O-])c1
  -17, ., ., 104
O=C(O)COc1ccc(CS(=O)(=O)Cc2ccc(OCC(=O)O)cc2)cc1
  2, 109, 100, 97
COc1ccc(-c2cc(=O)c3cc(OC(=O)c4ccncc4)ccc3o2)cc1
  3, 100, 94, 97
COc1cccc(CNC(=O)c2ccc3nc(CCc4ccccc4)oc3c2)c1OC
  ., 90, 91, 98
CCOC(=O)c1[nH]c2ccccc2c1NC(=O)Cc1ccc(OC)cc1
  -19, ., ., 102
COc1ccc(-c2csc(CN3CCN(c4ccccc4OC)CC3)n2)cc1
  4, 103, 108, 102
COc1ccc(CC(=O)N2CC(=O)Nc3ccc(Br)cc3C2c2ccc(F)cc2)cc1 (stereo unspecified)
  -9, 77, 89, 102
Cc1ccc(C)c(N2CCN(C(=O)c3cc(C)nc4c3c(C)nn4-c3cccc(F)c3)CC2)c1
  ., 104, 102, 106
CN(Cc1ccccc1Cl)C(=O)CNC(=O)c1ccco1
  1, 92, 90, .
CCOCC(=O)Nc1cccc(NC(C)=O)c1
  8, 99, 103, 98

# The results go on.
# Below each SMILES – HCMV NEC inh, Sa growth inh, Sa growth inh second temp, GIV Gai3 FP
Cc1ccccc1-c1nc2scc(CCNC(=O)c3ccco3)n2n1
  ., 88, 89, 104
CC/C(=N\c1ccnn1C1CCCCC1)c1c(O)n(CCOC)c(=S)[nH]c1=O
  16, 102, 96, .
O=C(NCCS(=O)(=O)N1CCN(c2ccccc2)CC1)c1ccccc1
  -13, 100, 98, 101
O=C(NC1CCCc2ccccc21)C1CCCN(c2ccnc(-c3ccccc3)n2)C1 (stereo unspecified)
  1, ., ., 98
O=C(O)c1ccccc1C(=O)N1CCC(C(=O)c2ccccc2)CC1
  -4, 111, 83, 101
COc1ccc(S(=O)(=O)N(CCC(=O)O)Cc2ccccc2)cc1
  3, 103, 99, .
CCn1c(CN(c2ccc(F)cc2)S(C)(=O)=O)nnc1SCC(N)=O
  -11, ., ., 103
O=C(Cn1nc(C(=O)O)c2ccccc2c1=O)c1c[nH]c2ccccc12
  -27, 86, 99, .
O=C(/C=C/c1cccc(C(F)(F)F)c1)NCc1ccccc1
  -16, 109, 89, .
Cc1ccc(OC(=O)Nc2ccccc2)cc1
  -4, 89, 92, .
Cc1ccc2cc3c(nc2c1)N(S(=O)(=O)c1ccc(Cl)cc1)CC3
  5, ., ., 91
COc1ccc(OC)c(NC(=O)C2CCN(S(=O)(=O)c3cc(-c4noc(C)n4)sc3C)CC2)c1
  -3, ., ., 105
O=C(c1ccccc1Br)N1CCC2(CC1)Nc1ccccc1-n1cccc12
  -35, ., ., 106
N#Cc1ccc(CSC2=Nc3ccccc3CS2)cc1
  6, 97, 95, .
COc1ccc(C)cc1NC(=O)C(=O)NCCc1sc(-c2cccc(C)c2)nc1C
  ., 94, 91, 102
Cc1cccc(Cn2cc(C(=O)Nc3ccc(F)c(C(F)(F)F)c3)ccc2=O)c1
  ., 117, 107, 111
CCCCNC1=NCCS1
  -32, 108, 96, .
N#CC1=C(N)Oc2ccccc2C12C(=O)Nc1cc(N)ccc12 (stereo unspecified)
  -8, 96, 99, 100
ONC=Nc1ccc2nnc(-c3ccccc3)n2n1
  -76, 91, 84, 105
COc1ccc(OCC2CCCNC2)cc1 (stereo unspecified)
  -2, 111, 97, 102

# Copied from the entries so far (4 entries):
# Below each SMILES – HCMV NEC inh, Sa growth inh, Sa growth inh second temp, GIV Gai3 FP
CCCCNC1=NCCS1
  -32, 108, 96, .
N#CC1=C(N)Oc2ccccc2C12C(=O)Nc1cc(N)ccc12 (stereo unspecified)
  -8, 96, 99, 100
ONC=Nc1ccc2nnc(-c3ccccc3)n2n1
  -76, 91, 84, 105
COc1ccc(OCC2CCCNC2)cc1 (stereo unspecified)
  -2, 111, 97, 102

# Continuation:
# Below each SMILES – HCMV NEC inh, Sa growth inh, Sa growth inh second temp, GIV Gai3 FP
O=C(O)Cc1c(-c2ccccc2)c2cc(Cl)ccc2[nH]c1=O
  ., 84, 90, 107
CCCc1nn2c(=O)cc(COc3ccc(/C=C(\C#N)C(=O)Nc4ccc(F)cc4)cc3)nc2s1
  5, 100, 86, 106
CCCCC[C@H](O)/C=C/[C@H]1[C@H](O)CC(=O)[C@@H]1C/C=C\CCCC(=O)O
  -28&4&-17&-17&-17, 92, 85, 98
Cc1ccc2[nH]c(=O)c3cc(C(=O)NCC4COc5ccccc5O4)sc3c2c1 (stereo unspecified)
  ., 102, 80, 104
CCOc1ccc(-n2c(=O)c(C#N)cc3c(=O)n4ccccc4nc32)cc1
  -55, 112, 96, 113
CCOc1ccc2nc(-c3nc4ccccc4s3)sc2c1
  ., 93, 94, 99
CCc1cccc(C)c1NC(=O)Cn1c(=O)cc(C(F)(F)F)c2c(C)nn(C)c21
  ., 103, 92, 101
CCN(CC)c1nc2c(S(=O)(=O)c3ccccc3)nnn2c2ccc(Cl)cc12
  -6, 91, 92, 101
O=C(NCc1ccccn1)c1nn(-c2ccccc2Cl)nc1CO
  -10, 112, 92, 100
CN(C)c1ccc(/C=C2\SC(=O)N(CCC(=O)Nc3ccccc3)C2=O)cc1
  -12, 92, 76, 205
CC[n+]1ccc(C)c2cc(S(=O)C(F)(F)F)ccc21 (stereo unspecified)
  -46, 96, 90, 106
Cc1ccc(NC(=O)CN2C(=O)c3ccccc3Sc3ccc(C(=O)N4CCOCC4)cc32)cc1F
  ., 73, 92, 105
CCC(C)NC(=O)c1ccc(CS(=O)(=O)Cc2ccc(Cl)cc2)o1 (stereo unspecified)
  ., 84, 79, 111
CCOc1ccc(CNC(=O)CCCc2cn(C)c3ccccc23)cc1OC
  ., 88, 95, 106
Cc1cc(C(=O)CSc2nc3ccccc3s2)c(C)n1C
  2, 100, 83, .
CCOC(=O)c1c(NC(=O)c2cc(=O)c3cc(C)cc(C)c3o2)sc(C)c1C
  -5, 89, 89, 103
CC1CCN(C(=O)CSc2c3c(nc4ccc(Cl)cc24)CCCC3)CC1
  -11&2, 84, 91, 108&99
CCSc1ncc(Cl)c(C(=O)Nc2nc3ccc(S(C)(=O)=O)cc3s2)n1
  5, 81, 92, 107
Cc1nn(-c2ccc(F)cc2)c(Cl)c1/C=N/N=C1\C(=O)Nc2ccccc21
  7, 69, 92, .
Cc1noc(-c2ccc(OCc3cnn(-c4ccccc4)c3)cc2O)c1Oc1ccc(F)cc1
  10, 103, 104, 113

# One compound at a time, from the list above. Screens in order: HCMV NEC inh, Sa growth inh, Sa growth inh second temp, GIV Gai3 FP
# Shown for `CC[n+]1ccc(C)c2cc(S(=O)C(F)(F)F)ccc21` (stereo unspecified) → -46, 96, 90, 106
# Shown for `CCCc1nn2c(=O)cc(COc3ccc(/C=C(\C#N)C(=O)Nc4ccc(F)cc4)cc3)nc2s1` → 5, 100, 86, 106
# Shown for `CCOC(=O)c1c(NC(=O)c2cc(=O)c3cc(C)cc(C)c3o2)sc(C)c1C` → -5, 89, 89, 103
# Shown for `CCN(CC)c1nc2c(S(=O)(=O)c3ccccc3)nnn2c2ccc(Cl)cc12` → -6, 91, 92, 101
# Shown for `CN(C)c1ccc(/C=C2\SC(=O)N(CCC(=O)Nc3ccccc3)C2=O)cc1` → -12, 92, 76, 205

# (listing goes on)
# Below each SMILES – HCMV NEC inh, Sa growth inh, Sa growth inh second temp, GIV Gai3 FP
COc1ccc(/C=C2\N=C(c3ccccc3)NNC2=O)cc1
  -36, 93, 93, 98
CCNC(=O)N(CC)Cc1nc(-c2ccc(Cl)cc2)no1
  -11, 86, 93, 108
CCc1ccccc1NC(=O)c1ccc2nc(C(C)C)oc2c1
  ., 86, 88, 105
CC(C)NC(=O)CCCn1c(=S)[nH]c2ccc(Br)cc2c1=O
  ., 106, 92, 102
CN(C)CCCN(C(=O)c1sc2ccccc2c1Cl)c1nc2ccc(F)cc2s1
  4, ., ., 102
CCN(CC)S(=O)(=O)c1cc(-c2cc(C(=O)N3CCc4ccccc43)no2)ccc1OC
  -20, 110, 89, 109
CCCCCOC(=O)c1ccc(OC(=O)c2sc3ncn(Cc4cccc(F)c4)c(=O)c3c2C)cc1
  ., 131, 96, 106
CCOC(=O)c1ccc(NC(=O)c2sc(NC(=O)COc3ccc(Cl)cc3)c(C(=O)OCC)c2C)cc1
  -28, ., ., 100
COc1ccc(C(=O)/C=C2\N/C(=N\S(=O)(=O)c3ccc(N)cc3)NC2=O)cc1
  -19, 96, 80, 110
CC(C)CC(=O)Nc1ccc(-c2csc(CC#N)n2)cc1
  -4, 89, 91, .
Cc1nc(-c2cccc(NC(=O)CN3CCCC3c3cccs3)c2)cs1 (stereo unspecified)
  -17, 136, 87, .
O=C(NCCS(=O)(=O)Cc1ccc(F)cc1)c1ccc(Cl)cc1
  0, 109, 71, 105
O=C(CSc1nnc(NC(=O)Nc2ccccc2)s1)Nc1cccc(F)c1
  ., 118, 78, 95
COc1cc2ccccc2cc1C(=O)OCC(=O)N1CCc2ccccc2C1
  -40, 103, 87, .
Cc1ccn2cc(-c3ccccc3)nc2c1
  -15, ., ., 104
COc1ccccc1CCNC(=O)C(=O)NCC(c1cccs1)S(=O)(=O)c1ccccc1 (stereo unspecified)
  ., 118, 92, 98
CC(=Nc1ccc(C)cc1)c1ccc(O)cc1O
  2, 100, 114, 113
CCOC(=O)C1CCCc2sc(N)c(C#N)c21 (stereo unspecified)
  2, 92, 89, 102
CCOC(=O)c1c(C)n(C)c2c1cc(OC(=O)c1ccccc1Br)c1ccccc12
  -9, ., ., 101
COC(=O)Nc1nc2ccc(C(=O)c3ccc(F)cc3)cc2[nH]1
  -27&-27, 85&101, 86&90, 100

# Further records follow.
# Below each SMILES – HCMV NEC inh, Sa growth inh, Sa growth inh second temp, GIV Gai3 FP
O=C(CN(c1cccc([N+](=O)[O-])c1)S(=O)(=O)c1ccccc1)N(Cc1ccccc1)Cc1ccccc1
  -12, ., ., 98
CC1(C)CC(=O)C2=C(C1)OC(N)=C(C#N)C2c1ccc(OC(=O)c2ccccc2Cl)cc1 (stereo unspecified)
  -34, ., ., 103
COC(=O)C(O)(NC(=O)c1ccccc1)C(F)(F)F (stereo unspecified)
  -10, 57, 36, 108
CS(=O)(=O)N1CCCc2cc(C(=O)Cn3cc(C(F)(F)F)ccc3=O)ccc21
  -7, 92, 97, .
CCN1CCO/C1=C\C=C\C1=[N+](CC)CCO1
  -60, 56, 52, 134
Cc1ccc(N2CC(C(=O)NCCS(=O)(=O)N3CCN(c4ccc(F)cc4)CC3)CC2=O)cc1 (stereo unspecified)
  ., 79, 96, 106
Cc1ccccc1OCc1ccc(-c2nc(C#N)c(NCCCN(C)C)o2)o1
  -46, 117, 85, 103
